High-throughput results: PubChem BioAssay, Broad Institute
NOMO-1 viab = STK33 inhibitor candidate reducing NOMO-1 cell viability; inhibition, % (concentration not given with the values); 37,000 tested, 7.5% active; NOMO-1 AML viability, CellTiter-Glo luminescence, 72 h;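 active = most replicates above 80%; inconclusive = exactly half above 80%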;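 note: wells of about 30 µL received 25 nL stock; 0% = median of vehicle wells and 100% = reference inhibitor level; the first replicate is given; inactives centre near 10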
Starred values were filed as active, the others as inactive; ? = inconclusive. A portion of the library (hit frequency here may not be typical).

entry	molecule	NOMO-1 viab
1	COC(=O)N1c2ccccc2C=CC1C#N (centres undefined)	16
2	C[C@@H]1CN([C@@H](C)CO)C(=O)c2cc(NS(=O)(=O)c3ccc(F)cc3)ccc2O[C@H]1CN(C)S(=O)(=O)c1ccc(Cl)cc1	-14
3	COc1c(C=O)c(O)cc2c1C(=O)c1ccccc1C2=O	96*
4	CS(=O)(=O)c1sc(C(=O)NC(=S)Nc2ccc(OC(F)(F)F)cc2)c2c1C=CCC2	9
5	COC(=O)c1cc(NC(=O)CC2SCCNC2=O)cc(C(=O)OC)c1 (centres undefined)	21
6	C[C@H](CO)N1C[C@H](C)[C@H](CN(C)S(=O)(=O)c2ccc(F)cc2)Oc2ccc(NS(=O)(=O)c3ccccc3)cc2CC1=O	12
7	Cc1noc(C)c1NC(=O)Nc1ccc2c(c1)C(=O)N([C@H](C)CO)C[C@H](C)[C@@H](CN(C)C(=O)Nc1cccc3ccccc13)O2	-5
8	Cc1ccc(S(=O)(=O)Nc2ccc3c(c2)CC(=O)N([C@@H](C)CO)C[C@H](C)[C@H](CN(C)C(=O)Nc2ccc(F)cc2)O3)cc1	0
9	COc1ccc(NC(=O)C(C)Oc2ccccc2)c([N+](=O)[O-])c1 (centres undefined)	23
10	CC(NS(=O)(=O)c1ccccc1)C(=O)Nc1ccccc1C(F)(F)F (centres undefined)	24
11	CN1CCN(C(=O)CN(c2ccc(I)cc2)S(=O)(=O)c2ccccc2)CC1	20
12	COC(=O)CN(c1cccc(Cl)c1)S(=O)(=O)c1ccc(Cl)cc1	31
13	COc1ccc(NC(=O)COc2ccc3ccccc3c2Br)c([N+](=O)[O-])c1	12
14	Cc1cc(OCC(=O)NCc2ccco2)c(C)cc1Br	17
15	COc1ccc(C(=O)NCCc2ccccc2)cc1Cl	6
16	O=C(CSc1nc2ccccc2s1)c1ccc2c(c1)OCCO2	57
17	C[C@@H]1CN([C@H](C)CO)C(=O)Cc2cc(NC(=O)Nc3cccc4ccccc34)ccc2O[C@@H]1CN(C)Cc1ccc2c(c1)OCO2	116*
18	C[C@@H]1CN([C@H](C)CO)C(=O)c2cc(NC(=O)C3CC3)ccc2O[C@H]1CN(C)S(=O)(=O)c1ccc(Cl)cc1	20
19	COc1ccc(NC(=O)N(C)C[C@H]2Oc3c(NC(=O)c4nc5ccccc5s4)cccc3C(=O)N([C@H](C)CO)C[C@@H]2C)cc1	31
20	C[C@H](CO)N1C[C@H](C)[C@@H](CN(C)Cc2ccc(C(F)(F)F)cc2)Oc2ccc(NC(=O)c3ccncc3)cc2C1=O	-9
21	Cc1noc(C)c1NC(=O)N(C)C[C@H]1Oc2c(NS(=O)(=O)c3ccccc3)cccc2C(=O)N([C@@H](C)CO)C[C@H]1C	13
22	C[C@H](CO)N1C[C@H](C)[C@@H](CN(C)Cc2ccc(Oc3ccccc3)cc2)Oc2c(NC(=O)c3cnccn3)cccc2C1=O	106*
23	COc1ccc(NC(=O)Nc2ccc3c(c2)C(=O)N([C@@H](C)CO)C[C@H](C)[C@@H](CN(C)S(=O)(=O)c2ccc(Cl)cc2)O3)cc1	24
24	O=C(CSc1nnc(Nc2ccccc2)n1-c1ccccc1)Nc1ccc2c(c1)COC2=O	-21
25	C[C@H](CO)N1C[C@H](C)[C@H](CN(C)Cc2ccccc2)Oc2ccc(NC(=O)Nc3ccc(C(F)(F)F)cc3)cc2CC1=O	?
26	Cc1ccccc1OCC(=O)Nc1cccc(NC(=O)c2ccc(C(C)(C)C)cc2)c1	33
27	Cc1ccc(S(=O)(=O)N(C)C[C@H]2Oc3ccc(NS(=O)(=O)c4ccc(F)cc4)cc3CC(=O)N([C@H](C)CO)C[C@H]2C)cc1	22
28	COC(=O)C1=C(N)Oc2cc(C)n(Cc3ccccc3)c(=O)c2C1c1ccncc1 (centres undefined)	7
29	C[C@@H]1CN([C@@H](C)CO)C(=O)c2cc(NC(=O)Cc3ccccc3)ccc2O[C@@H]1CN(C)Cc1ccc(Oc2ccccc2)cc1	112*
30	CNC[C@H]1Oc2c(NC(=O)c3ccncc3)cccc2C(=O)N([C@@H](C)CO)C[C@H]1C	-9
31	Cc1noc(C)c1S(=O)(=O)Nc1ccc2c(c1)C(=O)N([C@@H](C)CO)C[C@@H](C)[C@@H](CN(C)S(=O)(=O)c1cccs1)O2	-4
32	CCCC1=C(C(=O)OCC)C(c2cccnc2)n2ncnc2N1 (centres undefined)	16
33	COc1cccc(NC(=O)CSc2nc3ccccc3c(=O)n2-c2ccc(Br)cc2)c1	56
34	CCOC(=O)c1ncn(Cc2ccccc2)c1N	-39
35	CC(CCc1ccc(O)cc1)NCCc1ccc(O)c(O)c1 (centres undefined)	63
36	C[C@H](CO)N1C[C@H](C)[C@H](CN(C)Cc2ccccc2)Oc2ccc(NC(=O)CCC(F)(F)F)cc2C1=O	-6
37	Cc1ccc(S(=O)(=O)NCC(C)O)cc1-c1nnc2c3ccccc3c(C)nn12 (centres undefined)	3
38	Cc1cc(C(=O)Nc2cccc3c2O[C@H](CN(C)S(=O)(=O)c2cccs2)[C@H](C)CN([C@@H](C)CO)C3=O)n(C)n1	21
39	Cc1c(NC(=O)C(C)Oc2ccc(Cl)cc2Cl)cccc1-c1nc2ccccc2o1 (centres undefined)	32
40	COc1ccc(C)cc1NC(=O)CNS(=O)(=O)c1cc(Cl)ccc1Cl	15
41	C[C@H](CO)N1C[C@H](C)[C@@H](CN(C)Cc2ccncc2)Oc2c(NS(=O)(=O)c3ccc(Cl)cc3)cccc2C1=O	30
42	O=C(CC(c1ccccc1)c1ccccc1)NC1CCCC1	20
43	CCOC(=O)c1ccc(NC(=O)CCC2COc3ccccc3O2)cc1 (centres undefined)	-2
44	Cc1ccc(S(=O)(=O)N(C)C[C@@H]2Oc3c(NS(=O)(=O)c4c(C)noc4C)cccc3C(=O)N([C@H](C)CO)C[C@@H]2C)cc1	13
45	C[C@H]1CN([C@@H](C)CO)C(=O)Cc2cc(NC(=O)Nc3ccc(C(F)(F)F)cc3)ccc2O[C@H]1CN(C)CC1CC1	24
46	C[C@@H]1CN([C@@H](C)CO)C(=O)c2cccc(NS(=O)(=O)c3ccc(Cl)cc3)c2O[C@H]1CN(C)Cc1ccc(C(F)(F)F)cc1	27
47	Cc1noc(C)c1NC(=O)N(C)C[C@H]1Oc2ccc(NC(=O)CCC(F)(F)F)cc2C(=O)N([C@H](C)CO)C[C@@H]1C	7
48	COc1ccc(S(=O)(=O)N(C)C[C@@H]2Oc3c(NC(=O)NC4CCCCC4)cccc3C(=O)N([C@@H](C)CO)C[C@H]2C)cc1	-2
49	C[C@@H]1CN([C@H](C)CO)C(=O)c2cc(NC(=O)c3ccncc3)ccc2O[C@H]1CN(C)C(=O)Nc1ccccc1	37
50	O=C(Oc1cc(OC(=O)c2ccco2)cc(OC(=O)c2ccco2)c1)c1ccco1	24
51	CC/C=C\C[C@@H]1C(=O)C=C[C@@H]1CCCCCCCC(=O)O	117*
52	C[C@H]1CN([C@@H](C)CO)C(=O)Cc2cc(NC(=O)Nc3cccc4ccccc34)ccc2O[C@H]1CN(C)Cc1ccc(Cl)c(Cl)c1	88*
53	C[C@@H]1CCCCO[C@H](CN(C)S(=O)(=O)c2cn(C)cn2)[C@@H](C)CN([C@H](C)CO)C(=O)c2cc(NS(=O)(=O)c3ccc(Cl)cc3)ccc2O1	32
54	C[C@@H]1CN([C@@H](C)CO)C(=O)c2cc(NS(=O)(=O)c3ccccc3)ccc2O[C@@H]1CN(C)Cc1ccccc1	-1
55	Cc1noc(C)c1NC(=O)Nc1ccc2c(c1)CC(=O)N([C@@H](C)CO)C[C@@H](C)[C@@H](CN(C)S(=O)(=O)c1ccc(Cl)cc1)O2	-18
56	COc1ccc(S(=O)(=O)N(C)C[C@H]2Oc3ccc(NC(=O)C4CC4)cc3C(=O)N([C@@H](C)CO)C[C@H]2C)cc1	-21
57	C[C@H](CO)N1C[C@H](C)[C@H](CN(C)Cc2ccccc2)Oc2ccc(NC(=O)Cn3cnnn3)cc2CC1=O	25
58	C[C@@H]1CN([C@H](C)CO)C(=O)c2cccc(NC(=O)C3CC3)c2O[C@H]1CN(C)C	2
59	COc1ccc(C(=O)CSc2nnc(-c3ccc(Cl)cc3)n2-c2ccc(OC)cc2)cc1	-4
60	C[C@@H]1CN([C@H](C)CO)C(=O)c2cccc(NC(=O)C3CC3)c2O[C@H]1CN(C)C(=O)NC1CCCCC1	0

Overlap with the part before: 7 entries, followed by the next part.
entry	molecule	NOMO-1 viab
54	C[C@@H]1CN([C@@H](C)CO)C(=O)c2cc(NS(=O)(=O)c3ccccc3)ccc2O[C@@H]1CN(C)Cc1ccccc1	-1
55	Cc1noc(C)c1NC(=O)Nc1ccc2c(c1)CC(=O)N([C@@H](C)CO)C[C@@H](C)[C@@H](CN(C)S(=O)(=O)c1ccc(Cl)cc1)O2	-18
56	COc1ccc(S(=O)(=O)N(C)C[C@H]2Oc3ccc(NC(=O)C4CC4)cc3C(=O)N([C@@H](C)CO)C[C@H]2C)cc1	-21
57	C[C@H](CO)N1C[C@H](C)[C@H](CN(C)Cc2ccccc2)Oc2ccc(NC(=O)Cn3cnnn3)cc2CC1=O	25
58	C[C@@H]1CN([C@H](C)CO)C(=O)c2cccc(NC(=O)C3CC3)c2O[C@H]1CN(C)C	2
59	COc1ccc(C(=O)CSc2nnc(-c3ccc(Cl)cc3)n2-c2ccc(OC)cc2)cc1	-4
60	C[C@@H]1CN([C@H](C)CO)C(=O)c2cccc(NC(=O)C3CC3)c2O[C@H]1CN(C)C(=O)NC1CCCCC1	0
61	CN1[C@@H](CC(=O)c2ccccc2)CCC[C@H]1C[C@H](O)c1ccccc1	-10
62	C[C@@H]1CN([C@H](C)CO)C(=O)c2cccc(NC(=O)c3ccc(-c4nccs4)cc3)c2O[C@@H]1CN(C)Cc1ccncc1	8
63	CCn1c(SCC(=O)Nc2ccccc2Br)nnc1-c1ccccc1O	31
64	CCn1c(SCC(=O)c2ccc(F)cc2)nnc1-c1cccnc1	-15
65	Cc1ccc(S(=O)(=O)Nc2cccc3c2O[C@@H](CN(C)C(=O)Nc2ccc4c(c2)OCO4)[C@@H](C)CN([C@H](C)CO)C3=O)cc1	29
66	O=C(Cn1c(C(F)(F)F)nc2ccccc21)NCc1ccco1	-16
67	CCOc1ccc2nc(SCC(=O)Nc3ccc(Cl)cc3)[nH]c2c1	39
68	COC(=O)c1sccc1NC(=O)COc1cccc(C)c1	7
69	O=C1c2ccccc2C(=O)N1CCCc1nc(-c2ccncc2)no1	15
70	C[C@@H]1CN([C@@H](C)CO)C(=O)c2cc(NC(=O)c3ccncc3)ccc2O[C@H]1CN(C)Cc1ccc(C(=O)O)cc1	20
71	Cc1nc(C23CC4CC(CC(C4)C2)C3)[nH]c(=O)c1Cl	28
72	C[C@H](CO)N1C[C@H](C)[C@H](CN(C)S(=O)(=O)c2cccs2)Oc2ccc(NC(=O)CCCCCC(=O)Nc3ccccc3N)cc2CC1=O	49
73	C[C@H](CO)N1C[C@H](C)[C@H](CN(C)C)Oc2ccc(NC(=O)CCC(F)(F)F)cc2C1=O	-20
74	Cc1noc(C)c1NC(=O)Nc1ccc2c(c1)CC(=O)N([C@@H](C)CO)C[C@H](C)[C@@H](CN(C)Cc1ccc(-c3ccccc3)cc1)O2	-7
75	O=C(NCCN1CCCCC1)Nc1cccc2ccccc12	42
76	Cc1cc(=O)n2[nH]c(NCc3cccc([N+](=O)[O-])c3)nc2n1	-5
77	C[C@H]1CN([C@@H](C)CO)C(=O)Cc2cc(NS(=O)(=O)c3ccccc3)ccc2O[C@@H]1CN(C)Cc1ccc(Cl)c(Cl)c1	122*
78	CCCc1cc(=O)[nH]c(Nc2nc(C)c3cc(OC)ccc3n2)n1	11
79	O=C1CC(c2nc3ccccc3n2CCCOc2ccccc2)CN1c1ccccc1 (centres undefined)	10
80	C[C@H](CO)N1C[C@H](C)[C@H](CN(C)C(=O)Nc2ccc(C(F)(F)F)cc2)Oc2c(NS(=O)(=O)c3ccc(F)cc3)cccc2C1=O	84*
81	CCCn1nnc(NC(=O)COc2ccc(C)cc2)n1	14
82	C[C@@H]1CN([C@@H](C)CO)C(=O)c2cccc(NC(=O)C3CC3)c2O[C@H]1CN(C)S(=O)(=O)c1ccc(F)cc1	-3
83	COc1ccccc1N1CCN(CCCCN2C(=O)CCC2=O)CC1	6
84	Cc1noc(C)c1NC(=O)N(C)C[C@@H]1Oc2ccc(NC(=O)Nc3cccc4ccccc34)cc2CC(=O)N([C@H](C)CO)C[C@@H]1C	20
85	C[C@@H]1CCCCO[C@H](CN(C)S(=O)(=O)c2ccccc2)[C@@H](C)CN([C@H](C)CO)C(=O)c2cc(NC(=O)CCC(F)(F)F)ccc2O1	-2
86	C[C@H]1CN([C@@H](C)CO)C(=O)Cc2cc(NC(=O)NC3CCCCC3)ccc2O[C@H]1CN(C)C(=O)Nc1ccccc1	3
87	O=C(NCc1cccnc1)C1CC(c2cccc(Br)c2)=NO1 (centres undefined)	14
88	COC(=O)C1=CO[C@@H](O[C@@H]2O[C@H](CO)[C@@H](O)[C@H](O)[C@H]2O)[C@H]2[C@@H]1C=CC21C=C(C(C)O)C(=O)O1 (some centres undefined)	4
89	CC(=O)Nc1ccc(Br)cc1C(=O)OCc1cccc([N+](=O)[O-])c1	16
90	N#Cc1ccccc1CSc1nnc(-c2ccccc2)n1-c1ccccc1	21
91	Cc1c(NC(=O)CN(c2cc(Cl)ccc2Cl)S(C)(=O)=O)c(=O)n(-c2ccccc2)n1C	1
92	C[C@@H]1CN([C@@H](C)CO)C(=O)c2cccc(NC(=O)c3nc4ccccc4s3)c2O[C@H]1CN(C)C(=O)NC1CCCCC1	17
93	Cc1ccc(S(=O)(=O)N(C)CC(=O)Nc2ccc3ccccc3c2)cc1	12
94	C[C@@H]1CN([C@@H](C)CO)C(=O)c2cc(NC(=O)C3CC3)ccc2O[C@H]1CN(C)Cc1ccc(-c2ccccc2)cc1	44
95	CSc1c(CC(=O)Nc2ccc(C)cc2)[nH]c2ccccc12	58
96	O=S(=O)(Nc1nc2ccccc2nc1NCCc1ccccc1)c1ccc(Cl)cc1	18

Quoted at random: two compounds from above
entry	molecule	NOMO-1 viab
92	C[C@@H]1CN([C@@H](C)CO)C(=O)c2cccc(NC(=O)c3nc4ccccc4s3)c2O[C@H]1CN(C)C(=O)NC1CCCCC1	17
86	C[C@H]1CN([C@@H](C)CO)C(=O)Cc2cc(NC(=O)NC3CCCCC3)ccc2O[C@H]1CN(C)C(=O)Nc1ccccc1	3
